Autofluor counter = compound fluorescence in toxin protease inhibitor counterscreen. compound autofluorescence counterscreen, microsphere flow cytometry; active compounds read high. fluorescence intensity (no concentration beside the values). 360,000 compounds, 3.1% hits;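 active means at least 3 SD above the mean of all compounds, about 16000 in these data; inconclusive means too few beads counted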;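 further: 100 nL of 1 mM stock went into each well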
PrP 5UTR inh = inhibition of PrP 5' UTR reporter expression | cell-based PrP 5' UTR mRNA reporter, plate reader | inhibition, % (test concentration not listed) | 340,000 compounds, 0.35% hits | AID 488862;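 active means every replicate at 50% or more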;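 further: 0 = median of the neutral control wells; tested in H4 reporter cells; numbers are from one replicate; inactives centre near -14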
ugtP null kill = compounds lethal to S. aureus RN4220 ugtP deletion mutant | OD600 growth, 16 h; some inactives read as strong as hits | growth inhibition, % (test concentration not listed) | 330,000 compounds, 0.54% hits | AID 1259309;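 active means z-score under -3 and OD600 up to 0.15 on both plates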;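 further: plate controls were untreated wells for no effect and antibiotic for full effect; wells of about 80 µL received 100 nL stock; the first replicate is given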
Sa RN4220 lethal = kills Staphylococcus aureus RN4220; S. aureus RN4220 growth, OD600, 16 h; inhibition, % (no concentration beside the values); 330,000 compounds, 0.33% hits; AID 1259311;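 active means z-score of -3 or lower and OD600 up to 0.18 on both plates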;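 further: plate controls were untreated cells for no effect and reference antibiotic for full effect; stock transfer was 100 nL into about 80 µL; one replicate is shown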
BJeLR lethal = kills HRASV12-expressing BJeLR cells. BJeLR (HRASV12) viability, CellTiter-Glo ATP luminescence, 48 h; reference of the scale not given here. inhibition, % (concentration not given with the values). 300,000 compounds, 0.17% hits;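 active means replicate mean above 50%; inconclusive means above 50% but judged a plate artefact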;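 further: 50 nL library stock added to about 25 µL; numbers are from one replicate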
Mtb hypoxia rep = Mtb hypoxia fluorescent reporter inhibition. M. tuberculosis hypoxia-regulated fluorescent reporter, fluorescence. fluorescence inhibition, % (test concentration not listed). 300,000 compounds, 0.1% hits;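 active means 35 to 45% if threefold the growth effect, above 45% if 1.5-fold the growth effect; inactive means the rest, general growth blockers included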;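 further: wells of about 50 µL received 100 nL stock; 0% = vehicle wells and 100% = reference inhibitor wells; whole bacteria with a GFP reporter of the hypoxia response; strong numbers were not always called active; many hits fall short of the cut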
Mtb hypoxia rep growth = recorded beside Mtb hypoxia rep, whose call it bears; growth inhibition, %; measured here: M. tuberculosis growth (absorbance);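 0% = vehicle and 100% = reference antibiotic; read after six days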
Numbers without * were called inactive; ? = inconclusive; . = not tested or not shown.

SMILES | Autofluor counter | PrP 5UTR inh | ugtP null kill | Sa RN4220 lethal | BJeLR lethal | Mtb hypoxia rep | Mtb hypoxia rep growth
Cn1cc(CCC(=O)N2CCCC(C(=O)c3ccc(C(C)(C)C)cc3)C2)cn1 (stereo not drawn) | 2519 | -14 | 1 | 3.8 | -8 | 7 | 5
O=C(NN=Cc1ccncc1)c1ccc(NC(=O)c2ccc(Cl)cc2)cc1 | . | . | -3 | 7.5 | . | 16 | -1
O=C(NNC(=O)C1CC1)c1cc(=O)[nH]c2ccccc12 | 2638 | -8 | 12 | 4.9 | . | 8 | 2
O=C(O)CCNS(=O)(=O)c1ccc2c(c1)Cc1ccccc1-2 | 3667 | -22 | -7 | 6.7 | -2 | . | .
O=C(NCCc1ccccc1)C1CCC(CNc2nc(=S)[nH]c3ccccc23)CC1 (stereo not drawn) | 3254 | -8 | -5 | 12 | -11 | 12 | 6
CCCC(=O)NC(C)c1nc(-c2ccc(C)cc2)no1 (stereo not drawn) | 3407 | -25 | 4 | 7.6 | 0 | 1 | 11
COc1cccc(C2CC=C(C(=O)O)C(c3ccc(Cl)cc3)N2S(=O)(=O)c2ccc(C)cc2)c1 (stereo not drawn) | . | . | 42 | 31 | . | 10 | 8
COc1cccc(-n2c(C)nnc2SCC(=O)Nc2ccccc2N2CCOCC2)c1 | ? | -23 | 6 | 2.3 | 5 | -6 | 5
CC(C)Cc1nn2c(=O)cc(COc3ccc(NC(=O)c4ccco4)cc3)nc2s1 | 4048 | -17 | 1 | 2.5 | -1 | -4 | -6
O=c1ccc(-c2ccc(S(=O)(=O)Nc3ccc(F)cc3)o2)n[nH]1 | 5919 | 12 | 2 | 1.0 | 8 | -8 | 4
C=CCN1C(=O)C(=O)N(CC(=O)c2ccc3c(c2)CCCC3)C1=O | 4190 | -19 | 2 | 2.1 | . | 8 | 6
CC(=O)c1cccc(NS(C)(=O)=O)c1 | 2515 | -33 | 6 | 1.4 | 1 | -1 | 2
COC(=O)c1ccc(C(=O)OC)c(NC(=S)N2CCC(C(N)=O)CC2)c1 | 3280 | -31 | 3 | 8.7 | -2 | 10 | 10
CCCCNC(=O)CCCn1c(=O)[nH]c2ccc(Br)cc2c1=O | 6837 | 6 | 7 | 6.7 | 5 | 1 | 1
CC1CCC(NC(=O)c2ccc(NC3=NC4CS(=O)(=O)CC4S3)cc2)CC1 (stereo not drawn) | 5636 | -17 | 1 | 1.7 | -5 | -5 | 3
COc1cccc(NC(=O)C2CCCN(S(=O)(=O)c3cccc4cccnc34)C2)c1 (stereo not drawn) | 4692 | -15 | 9 | -0.5 | -3 | . | .
COc1ccc(-c2csc(C)n2)cc1Br | 4507 | -23 | 12 | -1.4 | -5 | 13 | 3
Cc1cccc(C)c1NC(=O)C1c2cccc[n+]2CC(=O)N1Cc1cccs1 (stereo not drawn) | 2578 | -6 | 0 | -0.1 | 9 | 8 | 7
CCOc1ccccc1-c1nnc(CS(=O)(=O)c2ccccc2)o1 | 2829 | -1 | 0 | 2.0 | -5 | 7 | 8
Cc1ccc(NS(=O)(=O)c2cccc(C(=O)Nc3cccnc3)c2)c(C)c1 | 3842 | -4 | 5 | 3.1 | . | 7 | 6
NC(=S)N=Nc1c(O)n(C2OC(=O)c3ccccc32)c2ccccc12 (stereo not drawn) | 2744 | 6 | -8 | 9.6 | -5 | -1 | 4
Cn1c(=O)[nH]c(=O)c2c1nc(Br)n2CCSc1ncccn1 | 4093 | 1 | -1 | 4.6 | -1 | -2 | 6
CCOC(=O)N1CCN(S(=O)(=O)c2ccc(OCC)cc2)CC1 | 8511 | 1 | 9 | 5.3 | 0 | 7 | 3
O=C(COC(=O)C1c2ccccc2Oc2ccccc21)NC1CCS(=O)(=O)C1 (stereo not drawn) | 3803 | -24 | -1 | 1.4 | -5 | 6 | 4
S=c1nc(-c2ccccc2)[nH]n1-c1ccccc1 | 25268* | -2 | -4 | 0.7 | -1 | -1 | -16

Reprinted from the part before: 2 entries, followed by the next part.
SMILES | Autofluor counter | PrP 5UTR inh | ugtP null kill | Sa RN4220 lethal | BJeLR lethal | Mtb hypoxia rep | Mtb hypoxia rep growth
O=C(COC(=O)C1c2ccccc2Oc2ccccc21)NC1CCS(=O)(=O)C1 (stereo not drawn) | 3803 | -24 | -1 | 1.4 | -5 | 6 | 4
S=c1nc(-c2ccccc2)[nH]n1-c1ccccc1 | 25268* | -2 | -4 | 0.7 | -1 | -1 | -16
COc1ccc(N(C(=O)Nc2ccc(Cl)cc2)C2=NCCC2)cc1 | 10214 | -28 | 30 | -1.1 | -3 | 13 | 6
COCC(=O)N1CCCC(C(=O)c2ccc(-c3ccccc3)c(F)c2)C1 (stereo not drawn) | 4117 | -22 | 2 | 0.7 | 29 | 19 | 2
COCCN(C)C(=O)CC1C(=O)NCCN1CC(c1ccccc1)c1ccccc1 (stereo not drawn) | 2309 | -20 | 6 | 3.2 | 8 | 6 | -11
CC(C)(OC(=O)c1cccs1)c1cc2ccccc2c(=O)o1 | 3809 | -11 | 0 | 5.3 | . | 12 | 12
O=C1[C@@H]2[C@H](C(=O)N1Cc1cccnc1)[C@H]1C=C[C@@H]2C1 | 10988 | -15 | 7 | -1.1 | 2 | 4 | 10
CC(O)Cn1c(=O)c2c(nc(Br)n2Cc2ccccc2)n(C)c1=O (stereo not drawn) | 8915 | -15 | -4 | -0.1 | -7 | -6 | 5
Cc1cc2cc(CNC(=O)C3CC3)ccc2n1C | 13924 | -15 | 0 | 4.3 | -6 | 6 | -2
Cc1cccc(Nc2nc(N)c([N+](=O)[O-])c(N3CCOCC3)n2)c1 | 6518 | -2 | -12 | 8.7 | -4 | 11 | 3
O=C(COC(=O)c1ccc(S(=O)(=O)N2CCOCC2)cc1)NCc1cccs1 | 2676 | -21 | 3 | -0.1 | 0 | 9 | 9
CC1=C(C(=O)Nc2ccccn2)C(c2ccc(Cl)cc2)NC(=S)N1 (stereo not drawn) | 4490 | -22 | 1 | 4.5 | -4 | -1 | 3
COc1cc(S(=O)(=O)NCCN2CCOCC2)ccc1-n1cnnn1 | 3144 | -19 | -2 | -1.6 | 19 | 4 | 20
CN1C(=O)[C@H](Cc2ccc([N+](=O)[O-])cc2)NC1=S | 3554 | . | 1 | 4.0 | 9 | -5 | -2
O=C(/C=C/c1ccccc1[N+](=O)[O-])N1CCCCC1 | 2604 | -27 | 1 | 2.6 | 5 | 14 | 12
Cc1cc2oc(C(=O)N(Cc3cccs3)C3CCS(=O)(=O)C3)cc(=O)c2cc1Cl (stereo not drawn) | 3180 | -6 | -4 | 0.2 | 1 | 11 | 2
CCOC(=O)c1c(C)n(C)c2ccc(O)c(CN(CC)CC)c12 | 10222 | -16 | -4 | 6.9 | -2 | 10 | 11
COC(=O)c1cc(OC)c(OC)cc1NC(=O)CSc1ccccc1 | 4069 | -3 | 5 | 3.6 | 2 | 13 | 6
Cc1ccc(S(=O)(=O)N(CC(=O)NCCSc2ccccn2)c2ccc(C)c(C)c2)cc1 | 2575 | -4 | 2 | 3.4 | -2 | -1 | -5
O=C(Nc1ccccc1F)c1ccc(-n2cncn2)nc1 | 2401 | -9 | -5 | -11 | 6 | -3 | 7
COC(=O)[C@H](Cc1ccccc1)NC(=O)Nc1ccc(OC)cc1 | 4278 | -11 | -2 | -1.7 | -1 | -7 | 0
CCOC(=O)c1sc(/S(C)=N\S(=O)(=O)c2cccc(Cl)c2)c2c1CCC=C2 (stereo not drawn) | 4062 | -17 | . | . | 2 | . | .
CN(C)C=NC(=S)Nc1ccc(Cl)cc1 | . | . | 2 | 2.7 | . | 13 | 12
Cc1occc1C(=O)NN=Cc1ccc2c(c1)OCO2 | . | . | 9 | 4.2 | . | 15 | 8
CSCC[C@H](NC(=O)N1CCn2c1nc1ccccc12)C(=O)NC1CCCCC1 | 5123 | -12 | 12 | 3.0 | -5 | 6 | 7
CCOC(=O)c1nn(C)c(C)c1Cl | 10344 | -16 | 1 | 4.3 | 2 | 8 | 8
Cc1ccccc1NC(=O)C(C)c1ccc(-c2ccccc2)c(F)c1 (stereo not drawn) | 3165 | -18 | 14 | 3.5 | -3 | 6 | 4

Next entries follow:
SMILES | Autofluor counter | PrP 5UTR inh | ugtP null kill | Sa RN4220 lethal | BJeLR lethal | Mtb hypoxia rep | Mtb hypoxia rep growth
C/C(=C\C(=O)c1ccc(Br)cc1)Nc1ccc(Cl)cc1 | 2488 | -21 | 7 | 4.5 | 8 | 1 | 6
Cc1ccc(S(=O)(=O)Nn2c(C)nnc2-n2nc(C)cc2C)cc1 | 4877 | -18 | 2 | -2.7 | -6 | . | .
COC(=O)/C=C1\S/C(=N/N=C/c2ccc(Cl)cc2)NC1=O | 3978 | -69 | . | . | -4 | . | .
CNC(=O)c1c(NC(=O)CS(=O)(=O)c2ccccc2)sc(C)c1C | 5949 | -19 | 3 | 0.8 | 7 | 1 | 1
Cc1ccc2[nH]c(=O)c(CN(C(=O)c3cccc([N+](=O)[O-])c3)C(C)C)cc2c1 | 5375 | -12 | 9 | 0.8 | -3 | 7 | -9
CC(=NO)c1ccn(S(=O)(=O)c2ccc(Cl)cc2)c1 | . | . | 1 | 2.1 | . | -6 | 8
CCOC(=O)C(NC(=O)c1ccccc1)=C1CCCCC1 | 2249 | -6 | 8 | -2.3 | 13 | . | .
CCCc1cc(C(=O)Nc2sc(C)c(CC)c2C#N)no1 | 4966 | -11 | -1 | 26 | 0 | -2 | 0
COC(=O)Cc1ccc(OC(=O)c2cccc(S(=O)(=O)N3CCN(C)CC3)c2)cc1 | 5155 | -13 | 7 | 1.6 | -10 | 7 | 11
Cc1cc(C)nc(NC(=O)/C=C/c2ccccc2Cl)c1 | 2227 | -107 | 13 | -3.9 | -13 | 7 | 9
Fc1ccc(Cn2nnnc2CN2CCN(C3CCCC3)CC2)cc1 | 4426 | -23 | 6 | -5.6 | 3 | . | .
CCC(C(=O)N1CCC2(CC1)OCCO2)n1c2ccccc2c2nc(=O)cc(C)n21 (stereo not drawn) | 4542 | -2 | 2 | 2.5 | -2 | 4 | 2
CCNCc1cc2cc(C)ccc2[nH]c1=O | 11374 | -98 | -1 | -3.2 | 5 | -12 | 10
CC(/C=N/NC(=O)Cn1nnc(N)n1)=C\c1ccc(C(C)C)cc1 | 4466 | -30 | . | . | 9 | . | .
Cc1ccc(S(=O)(=O)N2CCC(C(=O)OCC(=O)N(C)c3ccccc3)CC2)cc1C | 5517 | -13 | 5 | 0.6 | -3 | 2 | 6
Cc1ccc(S(=O)(=O)NCCCN2CCCC2)cc1 | 3920 | -31 | 16 | 3.9 | 10 | -7 | 5
COc1ccc(CC(=O)NNC(=S)Nc2ccccc2)cc1Cl | 4295 | -7 | 6 | 1.6 | 7 | 13 | 6
COc1ccc(N2CCN(S(=O)(=O)c3cccs3)CC2)cc1 | 4535 | -8 | 29 | 4.6 | -1 | 21 | 13
O=C1N/C(=C/c2ccco2)C(=O)N1Cc1ccccc1F | 2060 | -24 | -6 | 1.3 | -3 | 14 | 7
CS(=O)(=O)N1CCN(c2ccc(NC(=O)CSc3nnc(-c4ccco4)o3)cc2)CC1 | 2743 | 47 | 1 | 2.3 | -2 | -3 | 3
CC(/C=C/c1ccccc1)=NNC(=O)c1ccncc1 | . | . | -2 | 3.3 | . | 16 | 8
Cc1cc(C)c2sc(N(CCCN(C)C)C(=O)c3ccc(S(=O)(=O)N(C)Cc4ccccc4)cc3)nc2c1 | 6491 | 8 | -17 | 1.0 | 2 | 25 | 22
Cc1ccc(NC(=O)c2c(O)c3ccccc3n(C)c2=O)nc1 | 10200 | -56 | 33 | 15 | -15 | 15 | 18
CC(C)n1cc(C(=O)N2CCCC(N3CCN(c4ccc(F)cc4)CC3)C2)cn1 (stereo not drawn) | 5591 | -26 | 3 | 4.4 | -14 | 5 | 4

One compound at a time (already shown):
Cc1cc(C)nc(NC(=O)/C=C/c2ccccc2Cl)c1 across the screens: Autofluor counter: 2227; PrP 5UTR inh: -107; ugtP null kill: 13; Sa RN4220 lethal: -3.9; BJeLR lethal: -13; Mtb hypoxia rep: 7; Mtb hypoxia rep growth: 9
CCC(C(=O)N1CCC2(CC1)OCCO2)n1c2ccccc2c2nc(=O)cc(C)n21 (stereo not drawn) across the screens: Autofluor counter: 4542; PrP 5UTR inh: -2; ugtP null kill: 2; Sa RN4220 lethal: 2.5; BJeLR lethal: -2; Mtb hypoxia rep: 4; Mtb hypoxia rep growth: 2
CS(=O)(=O)N1CCN(c2ccc(NC(=O)CSc3nnc(-c4ccco4)o3)cc2)CC1 across the screens: Autofluor counter: 2743; PrP 5UTR inh: 47; ugtP null kill: 1; Sa RN4220 lethal: 2.3; BJeLR lethal: -2; Mtb hypoxia rep: -3; Mtb hypoxia rep growth: 3

Assay outcomes deposited in PubChem by several laboratories.
